Screening data from PubChem.
CtBP-E1A blk = blocks the CtBP interaction with E1A. AlphaScreen GST-E1A/His-CtBP binding, 1536-well; stronger effect = lower value; control for the full effect not named in the record. activity change, % (concentration not given with the values). 340,000 tested, 0.49% active. AID 651724; in the data active means activity change below about -65%; inconclusive means about -30% to -65%; inactive means above about -30%; note: % is set by controls: 0 for no effect and ±100 for the full control effect
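Homogeneous bead-based format: GST-tagged E1A captured on glutathione donor beads, His-tagged CtBP on nickel acceptor beads; compounds precede bead addition by 2 h at 37 °C.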
gsp ag = gsp mutant agonism | gsp mutant cells, cAMP HTRF, 30 min; control for the full effect not named in the record | 340,000 tested, 0.13% active | Potency, µM (doses to about 76.9 µM), inactives show at the top dose activation (cAMP increase), hits mostly activators; active = well fitted activation curve with a large enough effect; inconclusive = small, poorly fitted or top-dose-only effect, or another doubt; inactive = no such curve, though single readings can be large or run the other way; cell line not stated here;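 note: phosphodiesterase inhibitor Ro 20-1724 added with compounds to block cAMP breakdown; potency is the fitted concentration of half-maximal effect; nearly all actives have a fitted effect of over 60% in size; about a fifth of the inactives were tested at one dose only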
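Cells in DMEM/10% FBS with G418 were pretreated with compounds in DMSO plus […] (300 uM stock) for 30 min at 37C. cAMP was measured by HTRF (cAMP-d2 plus anti-cAMP antibody-K) after 30 min at room temperature.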
TRPV1 potentiator = human TRPV1 potentiation. TRPV1-expressing cells, Fluo-8 calcium influx, capsaicin EC20 potentiation; host cell line not named in the record; control for the full effect not named in the record. 320,000 tested, 0.02% active. potentiation, % at 8.33 µM; active means potentiation above 80%; inconclusive means 30% to 80%; inactive means below 30%; note: 0% is about no effect
Target sequence (Q8NER1 whole entry, looked up): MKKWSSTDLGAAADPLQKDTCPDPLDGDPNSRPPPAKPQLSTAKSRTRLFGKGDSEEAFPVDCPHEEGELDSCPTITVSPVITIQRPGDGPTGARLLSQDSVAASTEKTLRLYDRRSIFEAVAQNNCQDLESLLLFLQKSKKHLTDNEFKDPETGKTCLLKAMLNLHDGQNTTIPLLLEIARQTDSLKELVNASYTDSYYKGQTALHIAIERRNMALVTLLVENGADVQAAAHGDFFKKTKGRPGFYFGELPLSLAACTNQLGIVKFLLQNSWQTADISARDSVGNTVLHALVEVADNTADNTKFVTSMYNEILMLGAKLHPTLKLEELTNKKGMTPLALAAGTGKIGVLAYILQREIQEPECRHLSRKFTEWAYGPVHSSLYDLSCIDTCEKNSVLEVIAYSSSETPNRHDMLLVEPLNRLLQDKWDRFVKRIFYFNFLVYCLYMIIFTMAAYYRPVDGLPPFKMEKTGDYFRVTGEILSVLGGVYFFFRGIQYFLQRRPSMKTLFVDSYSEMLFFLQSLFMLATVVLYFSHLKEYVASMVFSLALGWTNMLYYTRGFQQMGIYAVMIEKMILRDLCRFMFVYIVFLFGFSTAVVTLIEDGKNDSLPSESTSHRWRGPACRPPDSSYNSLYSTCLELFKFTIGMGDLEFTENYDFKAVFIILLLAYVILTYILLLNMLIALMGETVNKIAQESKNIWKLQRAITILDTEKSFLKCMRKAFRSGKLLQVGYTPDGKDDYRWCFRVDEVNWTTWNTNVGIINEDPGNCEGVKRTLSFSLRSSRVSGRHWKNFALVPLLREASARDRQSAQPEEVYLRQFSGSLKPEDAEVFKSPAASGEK
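Cells expressing TRPV1 were dye-loaded with Fluo-8 and read kinetically: 10 s baseline, 3 min after compound (agonist portion), then 2 min after EC20 capsaicin (allosteric enhancer portion). Calcium-bound dye fluorescence at 480/520 nm.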
ClpP mod = qHTS Assay for Activators of ClpP; ATP-dependent Clp protease proteolytic subunit (Bacillus subtilis (strain 168)), P80244; purified B. subtilis ClpP, FRET peptide cleavage, 20 min; Potency, µM (series often up to 57.5 µM), for the others: top-dose activity change, negative = active; 340,000 tested, 1.9% active; active = well fitted falling curve with a large enough effect; inconclusive = small, poorly fitted or top-dose-only effect; inactive = no such curve, though single readings can be large or run the other way; note: potency is the fitted concentration of half-maximal effect; the source files actives as falling curves though it sought activators and does not explain the sign; nearly all actives have a fitted effect of over 65% in size; many hits overshoot -100%
Target sequence (P80244 whole entry, looked up): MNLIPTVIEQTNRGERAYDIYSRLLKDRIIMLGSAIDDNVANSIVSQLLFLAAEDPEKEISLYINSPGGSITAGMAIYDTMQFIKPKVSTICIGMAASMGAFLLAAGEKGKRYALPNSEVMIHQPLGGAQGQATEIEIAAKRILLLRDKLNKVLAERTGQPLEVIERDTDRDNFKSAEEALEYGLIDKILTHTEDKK
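Purified B. subtilis ClpP, 10 microg/mL final in Tris/HCl pH8 with KCl, BSA, glycerol and Tween-20, cleaved an Abz/nitrotyrosine-quenched decapeptide. Fluorescence (ex 320, em 430) was read at 0 and 20 min at room temperature. Delta was normalized to 5.8 microM ADEP and DMSO/no-enzyme controls.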
gsp antagonist = antagonizes gsp, the McCune-Albright syndrome mutation; gsp-mutant cells, cAMP HTRF, 30 min; control for the full effect not named in the record; Potency, µM (highest dose often 76.9 µM), inactives show at the top dose activity change, negative = inhibition, hits mostly inhibitors; 340,000 tested, 0.4% active; AID 624288; active = falling curve of any shape with a large fitted effect; inconclusive = falling curve, mostly with a smaller effect; inactive = flat or rising curve; cell line not stated here;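 note: intracellular cAMP measured with PDE inhibitor Ro 20-1724 present during compound exposure; potency is the fitted concentration of half-maximal effect; % is set by controls: 0 for no effect and ±100 for the full control effect; nearly all actives have a fitted effect of over 65% in size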
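G418-selected cells were plated in DMEM/10% FBS for 16-24 h at 37C, then treated with compounds plus the PDE inhibitor […] (300 uM solution added) for 30 min at 37C. Intracellular cAMP was measured by HTRF after 30 min lysis at room temperature.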
Menin-MLL FL inh = displaces fluorescein MLL peptide from human menin; AID 1766; FP activity change, % at 61.4 µM; Fluorescence polarization, fluorescein-MLL peptide displacement from menin; 290,000 tested, under 10 active; inconclusive = falling polarisation curve, or a change in total fluorescence; inactive = total fluorescence flat and polarisation flat or rising; no compound was filed as active; the % refers to the polarisation; negative = inhibition;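 note: % of control where 0% means no effect; inhibitors lower the polarisation; unlabelled MLL peptide was the positive control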
Sfp PPTase inh = blocks B. subtilis Sfp PPTase activity. Biochemical Sfp PPTase activity, qHTS. Potency, µM, for inactives: max response, negative = inhibition, most hits filed as inhibitors. 310,000 tested, 3.5% active. AID 1490; active = well fitted inhibition curve with a large enough effect; inconclusive = small, poorly fitted or top-dose-only effect, or another doubt; inactive = no such curve, though single readings can be large or run the other way;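 note: the enzyme is Sfp with the accession as filed and its product quenches rhodamine fluorescence; potency is the fitted concentration of half-maximal effect; 0% = enzyme reaction without inhibitor and -100% = no enzyme wells; top concentration of the series not given in the record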
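Compounds were incubated with enzyme (final 15 nM) for 15 min at room temperature before substrate addition started the reaction. Fluorescence at 525 nm excitation, 598 nm emission was recorded immediately and after 30 minutes.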
* marks the source's active call; other numbers are inactive results; ? = inconclusive; nt = no result given; & = joins results of further samples; ! = not active in a repeat; [ ] = dose if it differs, or a comment.

structure,CtBP-E1A blk,gsp ag,TRPV1 potentiator,ClpP mod,gsp antagonist,Menin-MLL FL inh,Sfp PPTase inh
COc1cc(OC)cc(C(=O)NC2CCSC2=O)c1 (stereo not given),-8,-43%[inhibitor],-3,-14%,3%,0.6,7%
O=C(CC1CCCC1)Nc1cc(C(F)(F)F)ccc1-n1cncn1,9,-28%,-2,1.3%,12%,nt,nt
Cc1occc1-c1nnc(SCC(=O)NC(=O)NC(C)C)n1N,6,16%,?,-2.5%,6%,3.9,-10%
O=C1C(Cl)=C(NC2CCCCC2)C(=O)N1c1ccc(Cl)cc1,27,?,-11,6.2%,-16%,-1.4,5%
O=C(CN1C(=O)COc2ccc(S(=O)(=O)N3CCOCC3)cc21)NCc1ccccn1,nt,?,?,-1.4%,0%,4.7,-3%
O=C(N/N=C/c1ccccn1)c1cc(-c2ccc3ccccc3c2)n[nH]1,-2,-4%,-12,22µM*,-24%,1.3,8%
CSc1nnc(C2CCCN2)n1C (stereo not given),-9,?,0,-2.5%,5%,-1.2,?
COCCNC(=O)CSc1nc2ccccc2c(=O)n1CCCC(=O)NCc1ccccc1,-23,16%,14,-1.2%,-5%,2.6,14%
O=C(NNC(=O)c1cccc(C(F)(F)F)c1)c1ccc(-n2cnnn2)cc1,-10,4%,nt,nt,3%,nt,nt
Cc1c(C(=O)OC2CCCC2C)[nH]c2c1C(=O)CCC2 (stereo not given),-2,-47%[inhibitor],-17,-0.4%,-16%,-1.5,-22%
Cc1c(Br)c([N+](=O)[O-])nn1C(C)C(=O)NCc1cccnc1 (stereo not given),8,0%,10,1.0%,3%,0.7,25%
CSc1ncnc2c1ncn2CCCNCc1cccs1,1,-88%[inhibitor],nt,-0.4%,nt,nt,nt
O=C(O)C(Cc1c[nH]c2ccccc12)NS(=O)(=O)c1ccc(F)cc1 (stereo not given),5,-33%,nt,-0.5%,nt,nt,nt
O=C1c2ccccc2NC(c2ccc(F)cc2)N1Cc1ccccc1 (stereo not given),nt,-11%,-1,3.7%,-27%,1.7,19%
O=C(O)c1ccc(S(=O)(=O)N(Cc2ccc(F)cc2)C2CCCCC2)cc1,-16,-5%,8,-1.8%,-20%,0.1,27%
CCC(C)NC(=S)N(CCc1ccccc1)Cc1cc2cc(OC)c(OC)cc2[nH]c1=O (stereo not given),-17,-3%,6,?,12%,-3.9,13%
CC(C)(C)C1CCc2[nH]nc(C(=O)O)c2C1 (stereo not given),-2,11%,-8,-3.3%,-8%,1.3,14%
COc1cc(-c2nc(-c3ccc(NC(=O)c4ccc(Br)o4)cc3)no2)cc(OC)c1OC,0,?,-2,-13%,-3%,7.0,-5%
CCOC(=O)c1sc(N(Cc2ccccc2)C(=O)COC(=O)c2cnccn2)nc1C,0,-1%[15.4 µM],-11,nt,1%,-1.8,9%
Oc1ccc(-c2csc(-c3cccnc3)n2)cc1O,-13,-18%[15.4 µM],17,nt,6%,5.8,?

Record cards, from the list above. Screens in order: CtBP-E1A blk | gsp ag | TRPV1 potentiator | ClpP mod | gsp antagonist | Menin-MLL FL inh | Sfp PPTase inh
COCCNC(=O)CSc1nc2ccccc2c(=O)n1CCCC(=O)NCc1ccccc1 is entered as -23 | 16% | 14 | -1.2% | -5% | 2.6 | 14%
Cc1c(Br)c([N+](=O)[O-])nn1C(C)C(=O)NCc1cccnc1 (stereo not given) is entered as 8 | 0% | 10 | 1.0% | 3% | 0.7 | 25%
O=C(CC1CCCC1)Nc1cc(C(F)(F)F)ccc1-n1cncn1 is entered as 9 | -28% | -2 | 1.3% | 12% | nt | nt

Further results follow:
structure,CtBP-E1A blk,gsp ag,TRPV1 potentiator,ClpP mod,gsp antagonist,Menin-MLL FL inh,Sfp PPTase inh
CC(/C=N/n1c(-c2ccco2)n[nH]c1=S)=C\c1ccccc1,-9,-34%[inhibitor],-7,-4.4%,-10%,7.2,?
O=C(Nc1c(Cl)ccc2nsnc12)c1ccc([N+](=O)[O-])o1,6,-2%,1,-1.2%,-1%,1.6,3%
CC1C(=O)C(C)C(c2ccco2)NC1c1ccco1 (stereo not given),6,-6%,11,-0.8%,-1%,-1.6,-20%
COc1ccc(NC(=O)CSc2nc(=O)n(CCN(C)C)c3c2CCCC3)cc1OC,-5,-4%[15.4 µM],-2,2.0%,-4%,nt,nt
Cc1ccc(C2(C(=O)N3CCC(n4nc(-c5ccccc5)oc4=O)CC3)CC2)cc1,nt,-7%,3,-0.3%,-25%,nt,-7%
COCCNc1nc(SCC(=O)N2CCN(c3ccccc3OC)CC2)nc2ccccc12,-5,3%,9,-0.1%,2%,-0.1,0%
O=C(c1ccccc1)c1c(-c2ccccc2)[nH]n(-c2ccccc2)c(=O)c1=O,7,13%,nt,nt,-16%,nt,nt
CC1CCN(CC(=O)Nc2ccc(S(=O)(=O)N3C(C)CCCC3C)cc2)CC1 (stereo not given),6,12%,2,0.5%,16%,-3.3,12%
COC(=O)c1ccc(C2N=C(c3cccs3)CC(c3ccccc3O)N2)cc1 (stereo not given),-1,-13%[15.4 µM],-4,nt,-13%,9.8,-9%
O=C(NC1CCCCC1)C1CCN(S(=O)(=O)c2cccc3nonc23)CC1,-4,-2%[15.4 µM],?,nt,7%,0.3,8%
COc1cc(NC(=O)c2c(Cl)cnn2C)c(OC)cc1Cl,3,-14%[15.4 µM],12,nt,-10%,0.4,2%
Cc1cc(C)n(C(=O)CNC(=O)COc2ccccc2)n1,-3,-7%,1,0.9%,3%,2.8,7%
O=C(Cc1c(F)cccc1Cl)Nc1ccc(S(=O)(=O)N2CCCC2)cc1,-1,?,-19,0.2%,8%,nt,5%
CCCCC(=O)Nc1ccc(C2C(=O)c3ccccc3C2=O)cc1,5,1%[15.4 µM],nt,1.2%,-18%,nt,nt
COCCN(C(=O)CSc1nc2ccccc2c(=O)n1CCOC)c1c(N)n(Cc2ccccc2)c(=O)[nH]c1=O,6,7%[15.4 µM],2,nt,nt,4.0,-20%
CCc1c(C)nc2cc(-c3cccs3)[nH]n2c1=O,-24,23%,9,22µM*,-4%,1.9,-2%
O=CNc1ccccc1,6,nt,-3,0.6%,1%,nt,nt
O=C(O)C(F)(F)C(NCc1ccccc1)c1ccccc1 (stereo not given),2,-6%[15.4 µM],-19,nt,10%,-0.1,23%
O=C(Cc1cc(=O)[nH][nH]1)N/N=C/c1ccccc1[N+](=O)[O-],9,-31%,29,-1.7%,8%,2.9,-24%
COC(=O)C1CC(=O)c2ccsc2C1 (stereo not given),-3,-28%,16,0.5%,?,0.1,28%
Cc1ccc(-c2noc(CN3CCN(Cc4ccccc4)CC3)n2)cc1,2,25%,-7,-1.0%,-9%,-2.9,1%
O=C(CSc1ccc(F)cc1)Nc1ccc(N2CCOCC2)cc1,-28,-46%[inhibitor],-21,-2.2%,9%,2.4,12%
O=C(C1CCN(S(=O)(=O)N2CCOCC2)CC1)N1CCc2ccccc21,4,?,-8,2.8%,3%,1.1,1%
CCOC(=O)C1CCN(C(=O)N(CC)CC)CC1,9,-45%[inhibitor],3,nt,-3%,-1.2,22%
COCCCNC(=O)CCc1nnc2ccc(N3CCC(C)CC3)nn12,-21,?,3,-2.5%,4%,-3.9,12%
S=C(NCCCN1CCOCC1)Nc1ccc(N2CCOCC2)cc1,nt,-50%[inhibitor],-1,0.7%,8%,-3.3,-8%
CCCCC[C@H]1CN(CCCC)C(=O)[C@@H]1CC(=O)NCc1ccccc1,nt,-7%,-17,1.2%,-2%,1.6,-2%
COC(=O)c1ccc(/C=C/C(=O)c2ccc(OC)cc2)cc1,4,-1%,-2,-0.3%,12%,1.9,4%
CC(=O)NCc1ccc(C(=O)CCl)s1,0,-9%[15.4 µM],5,nt,nt,-0.3,-4%
CCN1C(=O)N[C@H](c2ccc(Br)cc2)C(C(C)=O)=C1C,6,nt,-8,-0.7%,-1%,?,89µM*!
COc1ccc(NC(=O)c2sccc2SCC#N)cc1,0,0%,4,0.6%,11%,1.0,-2%
CC#CC[N+](C)(C)CCCCCCCC,11,23%,10,nt,3%,5.8,10%
COc1ccccc1C(=O)C1CCCN(C(=O)c2snnc2C)C1 (stereo not given),1,17%[15.4 µM],-4,-13%,0%,3.3,7%
O=C(CCS(=O)(=O)c1cccc2nonc12)Nc1cccc2c1CCCC2,-5,-3%,-13,-3.2%,8%,1.0,-9%
O=C(/C=C/c1ccc2c(c1)OCO2)c1ccc(O)cc1O,0,9%,nt,nt,-12%,nt,nt
Fc1cccc(F)c1-c1nc(-c2ccncc2)no1,11,?,-17,0.1%&-1.2%,7%,-4.5,16%

Random excerpt: 3 entries already listed, in no set order.
structure,CtBP-E1A blk,gsp ag,TRPV1 potentiator,ClpP mod,gsp antagonist,Menin-MLL FL inh,Sfp PPTase inh
CCCCC[C@H]1CN(CCCC)C(=O)[C@@H]1CC(=O)NCc1ccccc1,nt,-7%,-17,1.2%,-2%,1.6,-2%
Cc1ccc(-c2noc(CN3CCN(Cc4ccccc4)CC3)n2)cc1,2,25%,-7,-1.0%,-9%,-2.9,1%
CCOC(=O)C1CCN(C(=O)N(CC)CC)CC1,9,-45%[inhibitor],3,nt,-3%,-1.2,22%
